Assay outcomes deposited in PubChem by several laboratories.
UUG fidelity – alters start codon recognition fidelity in yeast; S. cerevisiae UUG-firefly luciferase reporter, luminescence/redox ratio; activity score, % at 18.7 µM; 350,000 tested, 0.13% active; AID 602363;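 active = replicate mean at a twofold rise or more, about +100% in these data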;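 note: firefly luciferase made from a UUG start codon reports start codon fidelity; reporter light over untreated wells divided by growth signal over untreated wells; some hits fall short of that in this replicate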
MT1-MMP act inh – inhibitors of human MT1-MMP activation | HT1080 RFP-PRO-GFP cells, GFP/RFP ratio fluorescence, overnight; percent of plate control window, DMSO zero | GFP/RFP ratio change, % at 20 µM | 360,000 tested, 0.061% active;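 active = GFP/RFP ratio change of at least 30% with cell ATP level not reduced by more than half and red fluorescence within 50% of control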; note: strong numbers were not always called active
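Assay system – RFP-PRO-GFP reporter HT1080 cells · Compound dosing – single dose of 20 µM compound, 1% DMSO final · Incubation – overnight compound exposure at 37 °C · Measure – GFP/RFP fluorescence ratio · Benchmarks – DMSO wells and RFP-L50D-GFP cells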
Rce1 inh – yeast Ras-converting enzyme inhibition. yeast membranes, quenched prenylated peptide cleavage fluorescence. 290,000 tested, 0.27% active. calls only. AID 2563;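 active = fall in fluorescence gain of 50% or more versus controls, with final raw signal at or below 3038400; inconclusive = same 50% fall but final raw signal above 3038400; inactive = fall in fluorescence gain under 50%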;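 note: plate controls were neutral control wells for no effect and wells lacking membranes for full effect; tested at 10 µM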
HIV Env fusion – HIV envelope-mediated fusion inhibition; AID 651610; HeLa-JRFL Env/CEM21 cell fusion, luciferase; 360,000 tested, 1.1% active; inhibition, % at 12.3 µM;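 active = mean replicate inhibition score of at least 50 and every replicate individually at or above 50; inconclusive = only one of the two criteria met; inactive = mean below 50 and not all replicates reaching 50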;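 note: 0% = plate neutral controls and 100% = maraviroc near 300 nM; one replicate is shown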
CSC inhib – cancer stem cell inhibition; cancer stem cell-like cells viability, luminescence; inhibition, % at 7.5 µM; 300,000 tested, 1.1% active; AID 2717;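 active = mean at 75% or more and at least half the replicates too; inconclusive = mean and replicates disagree; tested in HMLE shEcad cells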;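 note: 0% = median of negative and 100% = median of positive control wells; the first replicate is given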
eIF4H FP inh – inhibitors of RNA binding by human eIF4H. inhibition, % at 35 µM. eIF4H fluorescence polarization binding assay. 290,000 tested, 0.94% active;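 active = 50% or more with normal probe brightness, or confirmed in later tests; inconclusive = above 50% with abnormal brightness, or retests that disagree; inactive = below 50% or failed in later tests; about a fifth of its hits are not listed in these tables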;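 note: calls also rest on retests at 20 µM and on dose response follow-up; 0% = protein and probe with vehicle and 100% = probe without protein; strong numbers were not always called active; many hits fall short of the cut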
PABP FP inh – blocks human PABP binding to poly(A) RNA; inhibition, % at 35 µM; P11940; 290,000 tested, 1% active; AID 2014; fluorescence polarization;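 active = 50% or more with normal probe brightness, or confirmed in later tests; inconclusive = above 50% with abnormal brightness, or retests that disagree; inactive = below 50% or failed in later tests; about a fifth of its hits are not listed in these tables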;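 note: calls also rest on retests at 20 µM and on dose response follow-up; controls were probe without protein and protein plus probe with vehicle; some compounds called inactive have numbers as strong as hits; many hits fall short of the cut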
Target sequence (P11940 whole entry, looked up): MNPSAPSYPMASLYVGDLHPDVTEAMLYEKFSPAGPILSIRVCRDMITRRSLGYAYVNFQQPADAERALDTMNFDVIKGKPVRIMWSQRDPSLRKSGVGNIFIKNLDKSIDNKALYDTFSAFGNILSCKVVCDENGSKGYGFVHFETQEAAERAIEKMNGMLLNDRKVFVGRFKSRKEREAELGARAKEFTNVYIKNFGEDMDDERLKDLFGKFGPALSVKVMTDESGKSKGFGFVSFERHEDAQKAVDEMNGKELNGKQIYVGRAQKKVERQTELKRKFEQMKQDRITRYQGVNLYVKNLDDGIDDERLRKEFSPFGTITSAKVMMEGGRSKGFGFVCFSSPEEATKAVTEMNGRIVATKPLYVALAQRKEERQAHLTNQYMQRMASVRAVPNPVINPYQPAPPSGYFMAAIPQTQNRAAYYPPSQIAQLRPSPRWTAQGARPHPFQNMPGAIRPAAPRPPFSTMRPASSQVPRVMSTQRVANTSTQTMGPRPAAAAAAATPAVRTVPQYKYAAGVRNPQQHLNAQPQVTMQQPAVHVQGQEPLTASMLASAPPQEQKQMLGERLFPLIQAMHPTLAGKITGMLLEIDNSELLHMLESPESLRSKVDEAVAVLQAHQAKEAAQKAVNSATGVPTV
PABP FP inh retest – further read-out of PABP FP inh, marked with its call; inhibition, %; compound at 20 µM; confirmation repeats;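 mean of two retest wells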
MT1-MMP act inh RFP – recorded beside MT1-MMP act inh, whose call it bears; RFP signal change, %; measured here: RFP expression control read;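 0 = vehicle wells; hits needed this value within 50% of zero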
* marks the source's active call; other numbers are inactive results; i = inactive; ? = inconclusive; . = no result given; + = active, no number. No enrichment for hits; overall some 2.9% were active at least once.

SMILES | UUG fidelity | MT1-MMP act inh | MT1-MMP act inh RFP | Rce1 inh | HIV Env fusion | CSC inhib | eIF4H FP inh | PABP FP inh | others
CCNS(=O)(=O)c1ccc(CCC(=O)N2CCN(c3ccc(OC)cc3)CC2)cc1 | -21 | 3 | -7 | i | 17 | -16 | 9 | -16
Cc1ccccc1C(=O)NNc1ncnc2c1cnn2C | -6 | 3 | 6 | i | 7 | -26 | -1 | 5
O=C1NC(NS(=O)(=O)c2ccccc2)(C(F)(F)F)C(=O)N1Cc1ccccc1 (stereo not given) | 59 | -6 | -1 | i | -1 | 12 | 4 | 2
CCOC(=O)c1cc(S(=O)(=O)N2CCN(c3ccccc3OC)CC2)cn1C | -2 | -1 | -5 | i | -4 | -12 | . | .
COC(=O)c1nn(-c2ccccc2)c(=O)cc1Oc1ccccc1 | 5 | -6 | 2 | i | -63 | 5 | -5 | 3
CC1CCN(S(=O)(=O)c2ccc3c(ccn3CCC(=O)NC(C)C)c2)CC1 | -13 | 2 | 2 | i | 1 | -13 | 1 | 3
C[C@H](O)[C@@H]1C(=O)N2CCc3ccc(N4CCOCC4)cc3[C@@H]2C[C@@H]1N(C)S(=O)(=O)c1ccccc1 | 0 | -2 | 3 | . | -31 | . | . | .
COc1ccccc1NC(=O)CC1S/C(=N/N=C2\CCCc3ccccc32)NC1=O (stereo not given) | -5 | -6 | -3 | i | 8 | 6 | -4 | 3
CCCCN(C(=O)c1ccc(S(=O)(=O)N(CC)CC)cc1)c1c(N)n(CCC)c(=O)[nH]c1=O | -3 | 2 | 5 | i | 1 | -19 | -15 | -1
O=C(CN1NS(=O)(=O)c2ccccc2C1=O)Nc1ccccc1OC(F)F | -22 | 3 | 4 | i | -135 | 6 | 2 | -3
CSc1ncccc1C(=O)Nc1ccc2c(c1)OCCO2 | -23 | -1 | 2 | . | -11 | . | . | .
CC1Cn2c(nc3c2c(=O)[nH]c(=O)n3C)O1 (stereo not given) | -13 | 1 | 2 | i | . | -14 | -3 | -2
CCOc1cc(CNc2nn[nH]n2)ccc1OCC(=O)NC(C)(C)C | -21 | -1 | 0 | i | 6 | 0 | 2 | -8
Cc1nc2nc[nH]n2c(=O)c1CCC(C)C | -19 | -6 | 0 | i | -62 | 3 | -10 | -4
O=C(CN1N=C(c2ccccc2)CCC1=O)NCc1ccco1 | . | . | . | i | -7 | -12 | -11 | 10
CCOc1ccc(-c2c(=O)n(OCc3ccccc3Br)c3ccccc3[n+]2[O-])c(OCC)c1 | . | -5 | -4 | i | 6 | 7 | 0 | -1
C=Cn1c(C(=O)O)ccc1-c1ccc(OC)cc1 | . | 0 | 5 | i | 23 | 0 | -2 | -2
COc1cccc(NC2=C(C#N)C(=O)NC(c3cccc(OC)c3O)S2)c1 (stereo not given) | -23 | 1 | 4 | i | -2 | 0 | 8 | 10
COC(=O)[C@@]12CCCN1[C@H](c1ccc(-c3ccccc3)c(OC)c1)[C@H]1C(=O)N(C)C(=O)[C@H]12 | -6 | 0 | 0 | . | -296 | . | . | .
CN(C)C(=O)CN1C(=O)C2CC=C(Cl)CC2C1=O (stereo not given) | -7 | 0 | 3 | i | -19 | -9 | -9 | 4
O=C(CSc1nnc(NC(=O)c2cccc(F)c2)s1)NCC1CCCO1 (stereo not given) | -15 | -1 | 3 | i | 5 | -8 | -8 | -13
CSc1cccc(NC(=O)N2CCCC(CNS(=O)(=O)Cc3ccccc3)C2)c1 (stereo not given) | -5 | -1 | -1 | i | 3 | -7 | 9 | 6
NCC(=O)Nc1ccc(Cl)cc1C(=O)c1ccc[nH]1 | . | . | . | i | 50 | . | 0 | 12
COc1ccc2nc3sc(C(=O)NCCN4CCc5ccccc5C4)cc3cc2c1 | -4 | 9 | 1 | i | 5 | . | -6 | 4
C=CCN1C(=O)/C(=C2/Sc3ccccc3N2C)SC1=Nc1ccccc1C | -4 | 9 | 8 | i | -5 | . | 23 | 23
COC(=O)CN(C#N)c1nc(SC)nc(N(C)C)n1 | -1 | 6 | 0 | i | -1 | -7 | 0 | 3
CN1C(=S)SC(N(O)C(=O)Nc2ccc(Cl)c(Cl)c2)C1(C)C (stereo not given) | . | 3 | -2 | i | 16 | 10 | 1 | 2
C=CCNc1nc(SC)nc2ccsc12 | -17 | -3 | -1 | i | . | -9 | -10 | 12
CC1CCN(C(=O)C(=O)c2cn(CC(=O)N3CCCCCC3)c3ccccc23)CC1 | -3 | -5 | 4 | i | -6 | . | 19 | 10
Cc1ccc(S(=O)(=O)N2CCOCC2)cc1NC(=O)CSc1nc(N)cc(N)n1 | -13 | 2 | 0 | . | -15 | . | . | .
CCOC(=O)C(C#N)(Cc1cc(OC)cc(OC)c1)Cc1cc(OC)cc(OC)c1 | -4 | -4 | -7 | i | -5 | 12 | . | .
O=c1[nH]c(-c2cccnc2)nc2ccccc12 | -4 | 0 | -1 | i | -121 | -11 | -6 | 20
Cc1ccc(-c2nn(CCC(=O)O)cc2CCC(=O)O)cc1 | -24 | 0 | -2 | i | . | -4 | -3 | -2
CCO[C@H]1OC(C(N)=O)=C[C@@H](c2ccc(Br)cc2)[C@@H]1CCCO | -3 | 4 | 0 | i | 4 | 5 | 2 | 3
Cc1ccc(C(=O)O/N=C(\N)Cc2cccc3ccccc23)cc1 | -25 | 6 | 16 | i | -7 | 2 | 21 | 14
C/C(=N/OC(=O)CC(C)C)c1cc(-c2ccc(Cl)cc2)no1 | . | -1 | -1 | i | -36 | 10 | 8 | 0
COC(C[C@H](O)C[C@H](O)[C@@H](C)OCc1ccccc1)OC | -8 | 0 | 1 | + | -18 | -12 | . | .
COc1ccc(NC(=O)c2ccccc2)c([N+](=O)[O-])c1 | . | -3 | -1 | i | -91 | 6 | ? | 1.5* | PABP FP inh retest=78*
Cc1cc(Nc2ccc(C(=O)N3CCCCC3)cc2)c2cccc(C)c2n1 | -7 | -2 | -1 | i | 6 | -3 | -3 | 4
CCN(CC)S(=O)(=O)c1cc(NC(=O)c2cc(-c3ccccn3)nc3ccccc23)ccc1C | -14 | -1 | -10 | i | 18 | 4 | 3 | 43
COc1ccc(S(=O)(=O)Nc2ccccc2C(=O)NCc2cccnc2)cc1C | -6 | 3 | 1 | i | -1 | . | -8 | 1
CC(C)c1ccc(N=c2c([N+](=O)[O-])nn(-c3ccc4c(c3)OCCO4)n2O)cc1 | 10 | 14 | -9 | i | . | 23 | -6 | 0
CCOC(=O)c1ccc(NC(=O)c2cccc3c2C(=O)N(CC2CCCO2)C3)cc1 (stereo not given) | 20 | 4 | 1 | i | -2 | . | -4 | -4
Cn1c(N)c(C(=O)COC(=O)/C=C/c2cccc(C(F)(F)F)c2)c(=O)n(C)c1=O | 5 | -1 | 3 | . | . | -6 | . | .
O=C(CN1CCN(C2CCCCC2)CC1)NCCC1=CCCCC1 | -18 | -2 | -2 | i | . | -21 | 4 | 8
COC(=O)c1sccc1NC(=O)c1sccc1C | -18 | 2 | 2 | i | -11 | -2 | -6 | -9
O=C(CCc1nnc2ccc(NCc3ccco3)nn12)Nc1cccc(F)c1 | -5 | -1 | -2 | i | 3 | -9 | 22 | 11
CCCn1c(N)c(N(CCOC)C(=O)c2cc(Cl)nc3ccccc23)c(=O)[nH]c1=O | -20 | -1 | 1 | i | . | -5 | . | .
CC(=O)O[C@H]1[C@@H](O)[C@H](O)[C@H](Oc2c(O)c(C)c3c4c2[C@@H](C)CC[C@@H]4[C@@H](C)C[C@H]3C=C(C)C)O[C@H]1C | 5 | 2 | 2 | . | -9 | 106* | . | .
Cc1nn(Cc2ccccc2)c2sc(C(=O)N3CCN(Cc4ccc5c(c4)OCO5)CC3)cc12 | . | 3 | -6 | i | . | 10 | 3 | -9

(list continues)
SMILES | UUG fidelity | MT1-MMP act inh | MT1-MMP act inh RFP | Rce1 inh | HIV Env fusion | CSC inhib | eIF4H FP inh | PABP FP inh | others
Cc1cccc(C)c1OCCCN1CCOCC1 | 28 | 0 | 3 | i | . | -4 | 0 | -5
O=C(COC(=O)CCc1nc2ccccc2s1)Nc1cccc(S(=O)(=O)N2CCOCC2)c1 | -3 | 3 | 6 | i | 3 | 2 | -3 | -1
CCCSc1cc(=O)n(-c2ccccc2)nc1C(=O)OCC | 18 | 2 | 1 | i | 1 | -8 | -4 | 3
C=CCNC(=O)c1ccc(-c2nc(-c3ccc(Cl)c(Cl)c3)cs2)cc1 | 11 | 2 | 0 | i | -8 | -9 | 0 | 3
Cn1ccsc1=NC(=O)c1ccccc1F | 1 | 4 | 5 | i | 12 | -10 | 3 | 4
CN(Cc1cn[nH]c1-c1cc2ccccc2o1)CC1CCOCC1 | . | -8 | -3 | i | 9 | -2 | -1 | -14
Cc1ccc(S(=O)(=O)N2CCN(Cc3ccccn3)CC2)cc1 | -24 | 5 | 0 | i | 8 | 10 | 2 | 10
COc1ccc(C(=O)N2CCOC23CCN(c2ncccn2)CC3)cc1 | -15 | -3 | 3 | i | 1 | 10 | -1 | -2
CC(C)COc1ccc(C(=O)NC(Cc2c[nH]c3ccccc23)C(=O)NN)cc1 (stereo not given) | . | 2 | 5 | i | 0 | -6 | -9 | 0
COc1ccc(N=Cc2ccc(-c3ccccc3)o2)cc1 | . | 5 | 3 | i | -14 | -16 | -2 | -5
Nc1nc(=S)c2ncn(C3CCCC3)c2[nH]1 | . | 4 | 2 | i | -10 | 13 | -8 | 10
CCc1nc2c(OCc3ccc(C(=O)OC)cc3)cccn2c1N(C)C(=O)c1ccc(OC)cc1 | -10 | 0 | -9 | . | 31 | . | . | .
O=C(Nc1ccc(C(=O)N2CCCCC2)cc1)c1ccccc1Cl | -16 | 1 | -1 | i | -3 | -4 | -14 | -3
CCOC(=O)c1c(NC(=O)C2CC=CCC2C(=O)O)sc(C)c1CC (stereo not given) | . | -3 | 2 | i | 11 | 6 | 5 | -8
O=C(NCc1ccc2c(c1)OCO2)c1c(F)c(F)c(F)c(F)c1F | -21 | -1 | 1 | i | . | 2 | -2 | 21
COc1ccc(/C=C2\SC(=O)N(CCNC(=O)C3CC4C=CC3C4)C2=O)cc1 (stereo not given) | . | -1 | -1 | i | -14 | -7 | -8 | 21
CN(C(=O)c1cccc(NC(=O)C2CCN(C(=O)OC(C)(C)C)CC2)c1)C1CCC1 | 3 | 6 | -4 | . | 13 | -18 | . | .
Cc1c(C(=O)C(C)C)n(C)c2ccccc12 | 435* | -2 | -1 | i | . | . | -2 | -2
O=C(CSc1nncn1-c1ccccc1)N1CCCC1 | -14 | 1 | 0 | i | 9 | . | -1 | 10
CCN1CCN(c2nc3c(C)cccn3c(=O)c2/C=C(\C#N)C(=O)NC)CC1 | -13 | -3 | 1 | i | -6 | -10 | 3 | 7
Cc1ccc(CN2CCC2(C)C(=O)NC2CCc3ccccc32)cc1 (stereo not given) | -17 | 5 | -2 | . | 4 | . | . | .
N/C(Cc1ccc(Cl)cc1)=N\OC(=O)c1ccc2ccccc2c1 | -6 | 1 | -5 | i | -28 | -5 | 2 | 10
CCCNC(=O)c1ccc(N2CCC3(CC2)CC(c2ccccc2)=NO3)c(NC(=O)c2cccc(C)c2)c1 | -10 | -1 | -6 | i | -13 | -1 | -1 | 0
